# NPYLR7 agonist: mosquito NPYLR7 agonism; HEK293T NPYLR7/Galpha15, GCaMP6s calcium fluorescence; activation, % at 10 µM; 270,000 tested, 0.15% active; in the data active means activation above about 40%;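 further: 0% = vehicle and 100% = reference agonist at the receptor; some compounds past the cut are filed as inactive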
# NPYLR7 agonist max-min: further read-out of NPYLR7 agonist, marked with its call; activation, %; measured here: Max-Min RFU normalised activation; some inactives read as strong as hits;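 span of the calcium signal over five minutes; 0% = vehicle and 100% = native peptide agonist; compound fluorescence can raise it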
# The depositor's hits bear a star; & = joins results of further samples. Only part of the results is shown; the hit share may differ from the screen's.
# Preview (2 entries):
SMILES,NPYLR7 agonist,NPYLR7 agonist max-min
CCN(Cc1cnn(C)c1)C(=O)c1cc(COc2ccc3c(c2)CCCC3)on1,-1,-2
Cn1cccc1C(=O)Nc1nn(Cc2ccc(COc3ccc4c(c3)OCO4)cc2)c2ccc(C(F)(F)F)cc12,12,16

# All compounds of this part, from the first entry:
SMILES,NPYLR7 agonist,NPYLR7 agonist max-min
CCN(Cc1cnn(C)c1)C(=O)c1cc(COc2ccc3c(c2)CCCC3)on1,-1,-2
Cn1cccc1C(=O)Nc1nn(Cc2ccc(COc3ccc4c(c3)OCO4)cc2)c2ccc(C(F)(F)F)cc12,12,16
O=C(O)c1ccccc1Sc1ccc(S(=O)(=O)N2CCCC2)cc1[N+](=O)[O-],-5,2
CN1CCC2(CC1)N=C(c1ccc(F)cc1)C(=S)N2C(=O)c1ccccc1,-1,10
COCCN(CCCN(C)C)C(=O)Nc1cccc(Cl)c1OC,-2,4
CN(C)S(=O)(=O)NCc1cccnc1Oc1ccc(F)c(F)c1,19,8
Cc1ccc(-c2cc(C(=O)Nc3ccccc3C(C)C)c3ccccc3n2)s1,-1,-10
Cc1c(C=NNc2ncnc3sc4c(c23)CCCC4)cc(C#N)n1C,4,6
C=Cc1c(C)c2cc3[nH]c(cc4nc(cc5nc(cc1[nH]2)C(C)=C5CCC(=O)O)C(CCC(=O)O)=C4C)c(C)c3C=C,-4&-6&-1,-10&-11&5
CCOC(=O)N1CCN(C(=O)CCc2cc3c(n2-c2ccc(F)cc2Cl)-c2ccccc2CO3)CC1,2,-2
CN1CCC(Cc2noc(CCN3CCCCCC3=O)n2)CC1,37,21
O=C(/C=C/c1ccccc1)N(Cc1cccnc1)c1nc2ccc(F)cc2s1,-9,-9
CC(C)(C)c1nnnn1CC(O)COc1ccc(Br)cc1 (stereo not drawn),7,6
OCc1ccccc1,-2,3
COc1cc(OC)cc(-c2nn(-c3ccc(C)cc3C)c(OC(C)=O)c2-c2ccc(NC(=O)c3ccc(C(F)(F)F)cc3)cc2)c1,-3,2

# No new results follow: an excerpt of the list.
SMILES,NPYLR7 agonist,NPYLR7 agonist max-min
CCN(Cc1cnn(C)c1)C(=O)c1cc(COc2ccc3c(c2)CCCC3)on1,-1,-2
Cn1cccc1C(=O)Nc1nn(Cc2ccc(COc3ccc4c(c3)OCO4)cc2)c2ccc(C(F)(F)F)cc12,12,16
O=C(O)c1ccccc1Sc1ccc(S(=O)(=O)N2CCCC2)cc1[N+](=O)[O-],-5,2
CN1CCC2(CC1)N=C(c1ccc(F)cc1)C(=S)N2C(=O)c1ccccc1,-1,10
COCCN(CCCN(C)C)C(=O)Nc1cccc(Cl)c1OC,-2,4
CN(C)S(=O)(=O)NCc1cccnc1Oc1ccc(F)c(F)c1,19,8
Cc1ccc(-c2cc(C(=O)Nc3ccccc3C(C)C)c3ccccc3n2)s1,-1,-10

# Later entries
SMILES,NPYLR7 agonist,NPYLR7 agonist max-min
COc1ccc(S(=O)(=O)N2CCc3ccccc3C2)cc1N1CCN(C(=O)c2cc3ccccc3s2)CC1,6,0
CC(C)COC(=NC(C)c1ccccc1)NC(=O)c1cccc(C(F)(F)F)c1 (stereo not drawn),20,23
CCOC(=O)CCCCCN1C(=O)c2cccc3cccc(c23)C1=O,5,4
CCC(O)CN(Cc1cccnc1)c1ccccc1 (stereo not drawn),-2,-4
CNC(=O)NC(=O)C(C)SC(=S)N1CCCC1 (stereo not drawn),-6,-9
CC(C)Oc1ccc(CN2CCC2(C)C(=O)Nc2cnc3ccccc3c2)cc1 (stereo not drawn),7,-1
CCN1C(=O)N(CC)C2NC(=O)NC21 (stereo not drawn),4,6
CN(CCc1ccccn1)C(=O)c1nn2c(C(F)(F)F)cc(-c3ccco3)nc2c1Cl,1,0
COCCN(Cc1ccc(F)cc1)CC(O)COCc1ccco1 (stereo not drawn),33,35
COCc1nc(C)nc(N2CCN(C(=O)C3CC3)CC2)c1Cc1c(F)cccc1Cl,19,23
CC(=O)N1CCc2c(sc(NC(=O)c3ccco3)c2-c2nc3ccccc3s2)C1,8,9
Cn1c(=O)c2c(nc(CN3CCOCC3)n2CC(N)=O)n(C)c1=O,1,-1
Cc1onc(-c2ccccc2Cl)c1C(=O)NCc1cccnc1,3,4
Cc1ccc(NC(=O)NCCc2csc(C(C)C)n2)c(Cl)c1,2,4
COc1cc(CC(=O)N2CCOC(Cc3ccccc3)C2)cc(OC)c1 (stereo not drawn),28,29
COc1cc(Cn2ccnc2-c2ccc3c(c2)OCO3)cc(OC)c1OC,-4,-13
Cc1cc(C)n(-c2cc(NCCNS(=O)(=O)Cc3ccccc3)ncn2)n1,-7,-12
CCn1c(=O)[nH]c2cc(C(=O)N3CCc4ccc(S(=O)(=O)NC)cc43)ccc2c1=O,2,-1
Cc1noc(C)c1C(=O)N1CCN(c2ncccc2NC(=O)c2ccc3c(c2)OCO3)CC1,7,1
O=C(c1ccncc1)N1C2C=CC(C2)C1(C(F)(F)F)C(F)(F)F (stereo not drawn),6,2
Cc1ccc(C(OC(=O)CCNC(=O)c2ccccc2)C(F)(F)F)cc1 (stereo not drawn),6,3
COc1cccc(C2C(S(=O)(=O)N(C)C(C)C)CON2C)c1OC (stereo not drawn),6,3
O=C(/C=C/c1cccs1)N(CCCn1ccnc1)c1nc2c(F)cccc2s1,-13,-19
c1nc(SCC2CCCCO2)c2c3c(sc2n1)CCC3 (stereo not drawn),5,7
CN(C)C(=O)CSc1nc2scc(-c3cccs3)c2c(=O)[nH]1,5,2
O=S(=O)(N1CCCCCC1)N1CCCCC1c1cccc(F)c1 (stereo not drawn),2,2
CONC(=O)Nc1sc(=S)n(C)c1C,1,-1
CCOC(=O)C1CCN(C(=O)c2coc(CN(Cc3ccc4c(c3)OCO4)Cc3ccccc3Cl)n2)CC1,18,20
CCOc1ncccc1-c1ccc(Cn2ccnc2)cn1,0,0
CCN(CC)C(=O)Oc1ccc2c(ccn2Cc2c(Cl)ccc(C)c2F)c1-c1ccc(OC)c(OC)c1,13,4
CC(C)(C)CC(=O)N1CCC(c2c[nH]c3ccc(F)cc23)CC1,22,31
Cc1nnc(-c2cccc(Cn3nnc(-c4ccccc4)n3)c2)o1,1,-2
COc1cccc(C(=O)N(Cc2cccc(OS(=O)(=O)c3ccc(F)cc3)c2)Cc2ccco2)c1,-2,1
CN1CCC2(CCN(S(=O)(=O)CCC(F)(F)F)CC2)C1,3,0
CNC(=O)Cn1cnc2c(nnn2-c2cccc(F)c2)c1=O,-6,-11
O=S(=O)(c1cc(Br)ccc1F)N1CCC(N2CC=CC2)C1 (stereo not drawn),-4,-4
C=C(C)COc1ccc(C(=O)N(C)C(C)c2cccnc2)cc1 (stereo not drawn),-6,-8
CO/N=C(/C(=O)NCCc1ccc(O)cc1)c1csc(NC=O)n1,5,4
O=C(C1CCCCN1Cc1ccc(-n2ccnc2)cc1)N1CCN(c2ccc3[nH]c(=O)[nH]c3c2)CC1 (stereo not drawn),-3,2
COc1ccc(S(=O)(=O)NCc2ccc3c(c2)OCO3)cc1C,-9,-9
COCOc1cccc(CN2CCC2(C)C(=O)Nc2ccccc2Cc2ccccc2)c1 (stereo not drawn),4,-2
O=C(O)Cn1nc2c3c(cccc3c1=O)-c1ccccc1-2,-4,-6
COc1ccc(NC(=O)N(CC(=O)N(CCc2c[nH]c3ccccc23)Cc2ccc(C(F)(F)F)cc2)C(C)C)c(OC)c1,7,5
Cc1cc(N(CN2CCCC2=O)C(=O)c2ccc(F)cc2)no1,-1,-2
CC(NC(=O)c1cccs1)C(=O)Nc1nc2ccccc2s1 (stereo not drawn),15,6
Cc1cc(C)n(-c2nc(C)c(C)c(=O)n2CC(=O)N2CC(C)OC(C)C2)n1 (stereo not drawn),-3,1
CC(C)Cc1nc(-c2cccc(CN3CCN(C(=O)C4(C(N)=O)CC4)CC3)c2)no1,5,15
NC(=O)c1ncn(C2OC(CO)C(O)C2O)n1 (stereo not drawn),-2,-7
COc1cccc(-c2ccc(NC(=O)C3CCCN(Cc4nccn4C)C3)cc2)c1 (stereo not drawn),5,0
CCOC(=O)C1(C/C=C/c2ccccc2)CCCN(C(=O)CCc2scnc2C)C1 (stereo not drawn),19,12
CCCOc1ccc(C(=O)NCc2ccc(NC(=O)NC(C)C)cc2)cc1,-6,-12
CC(C)(C)C(=O)N1CCc2ccc(NC(=O)C3(c4ccccc4)CCOCC3)cc21,1,3
CCC1=NOC(CNc2cc(C(C)C)nc(C)n2)C1 (stereo not drawn),-2,1
Cc1cc(C)n(-c2nc(C)c(C)c(=O)n2CC(=O)NC(C)C)n1,-1,4
O=C1CC(c2cccnc2)c2cnn(CC3CC3)c2N1 (stereo not drawn),22,8
Cc1cnc2c(S(=O)(=O)NC(C)CN(C)c3ccccc3)cccc2c1 (stereo not drawn),-1,23
CCOc1nc(-c2cccc(C(F)(F)F)c2)n(-c2ccc(NC(=O)c3cccc(Br)c3)cc2)n1,12,17
Cc1ccccc1Cn1c(C(=O)N2CCN(Cc3ccc4c(c3)OCO4)CC2)cc2ccoc21,6,12
Cc1nnc2ccc(-c3cccc(NS(=O)(=O)c4cccs4)c3)nn12,-14,-12
Cc1cc(C)n(CC2(CNC(=O)c3occc3C)CC2)n1,-11,-15

# Record cards (already shown).
# Entry for NC(=O)c1ncn(C2OC(CO)C(O)C2O)n1 (stereo not drawn) = NPYLR7 agonist: -2; NPYLR7 agonist max-min: -7
# Entry for Cc1cc(C)n(-c2nc(C)c(C)c(=O)n2CC(=O)NC(C)C)n1 = NPYLR7 agonist: -1; NPYLR7 agonist max-min: 4
# Entry for Cc1ccccc1Cn1c(C(=O)N2CCN(Cc3ccc4c(c3)OCO4)CC2)cc2ccoc21 = NPYLR7 agonist: 6; NPYLR7 agonist max-min: 12

# Fetched by structure from the entries so far, 3 records:
SMILES,NPYLR7 agonist,NPYLR7 agonist max-min
Cc1c(C=NNc2ncnc3sc4c(c23)CCCC4)cc(C#N)n1C,4,6
c1nc(SCC2CCCCO2)c2c3c(sc2n1)CCC3 (stereo not drawn),5,7
Cc1ccc(NC(=O)NCCc2csc(C(C)C)n2)c(Cl)c1,2,4

# Following part:
SMILES,NPYLR7 agonist,NPYLR7 agonist max-min
CNCCNC(=O)c1ccccc1Cc1ccc(Cl)cc1,13,-1
CC1(C)CC(=O)C2=C(C1)OC(=N)C(C#N)C21CCCCC1 (stereo not drawn),2&-14,1&-24
O=C1/C(=C\c2cccnc2)CSc2ccc(Br)cc21,2,0
COc1ccc(CNc2ccc3ncc(-c4ccc(C(=O)O)cc4)n3n2)cc1,-4,-9
CC(C)(C)CC(C)(C)Nc1c(-c2cccc(F)c2)nc2ccc(Cl)cn12,2,12
Cc1nc(CCNC(=O)c2ccc3nc(C4CCCCC4)oc3c2)nc2c1CCC2,-4,-6
CCCC(O)CNC(c1nc(-c2cccc([N+](=O)[O-])c2)no1)C(C)C (stereo not drawn),2,13
CCOC(C)c1nc(CN2CCc3cc(Br)ccc32)cs1 (stereo not drawn),6,8
C=CCN(CC=C)C(=O)c1ccc(-n2nc(C(=O)OCC)cc2C2CC2)cc1,-4,4
Cc1ccc(C)c(NC(=O)CC2Cn3ncc(-c4ccccc4)c3NC2=O)c1 (stereo not drawn),-12,-18
Cc1cc(C2=CSC3=NS(=O)(=O)CCN23)c(C)n1CCC(C)C,-1,-4
COc1ccc(NC2=CC(=O)N(CCO)C2=O)cc1,3,6
COCCNC(=O)c1ccc(NC(C)c2ccccn2)nc1 (stereo not drawn),2,14
OC1(c2cccs2)CN(c2ccccc2)C2=[N+]1CCCC2 (stereo not drawn),-5,-7
Cc1cccc2c(-c3c(-c4ccccc4)ncn3CCN)cn(C)c12,7,5
O=C(NCc1ccccc1-n1cncn1)c1ncc[nH]1,22,17
CC(C)Oc1ccccc1CNCCOc1ccccn1,7,4
O=C(OCc1cc(=O)n2ccccc2n1)c1ccc(Cn2cncn2)cc1,-1,-5
CCCNC(=O)NS(=O)(=O)c1ccc(Cl)cc1,-7&-4&-8&3,-8&-8&-11&-1
COc1cccc(Oc2c(CN(CC(C)C)CC(O)COc3ccccc3C)c(-c3ccccc3)nn2C)c1 (stereo not drawn),7,12
CCOC(=O)C1=C(O)/C(=C\c2ccc3c(c2)OCCO3)SC1=Nc1ccc(OC)c(OC)c1,7,5
Cc1cccc(CNC(=O)c2coc(CN3CCN(Cc4ccccc4)CC3)n2)n1,3,2
O=C(NCC1CCCN1c1cccnn1)c1c(F)cccc1Cl (stereo not drawn),2,-1
O=C(c1coc(Cn2cnc3ccccc32)n1)N(Cc1ccccn1)CC1CCCO1 (stereo not drawn),-1,-7
Cn1c(SCC(=O)NCc2ccc(Cl)cc2)nc2c(-c3ccccc3)c[nH]c2c1=O,-3,-2
Cc1cc(O)c(CN(C)Cc2ccc3c(c2)OCCO3)cc1C(C)C,3,3
CCCNC(=O)c1ccccc1SCc1cscn1,1,-2
C=CCN(CC(=O)N(CCc1ccc(OC)c(OC)c1)Cc1cccs1)C(=O)Nc1ccc(Br)cc1,-1,-8
Cc1cc([N+](=O)[O-])nn1CC(=O)NCCCn1ccnc1,-10,-11
O=C(c1cc(-c2cccs2)nn1-c1ccc(F)cc1)N1CCN(c2ccc([N+](=O)[O-])cc2)CC1,-5,0
COc1ccc(OCC(=O)N2CCOC(COCc3cccc(C)c3)C2)cc1 (stereo not drawn),-5,-9
Cc1cccc2c(=O)oc(-c3ccc(F)cc3)nc12,-2,-11
CCOCCCNCC(=O)N(Cc1ccc2c(c1)OCO2)Cc1sccc1C,-11,-17
COc1ccc(Oc2cc(NC(C)=O)ccc2OC)cc1,0,-1
CC(C)c1cc(CNCc2cn(-c3ccccc3)nc2-c2ccc3c(c2)OCO3)on1,12,4
